Salmonella PhoP GFP – PhoP-dependent GFP reporter repression – Salmonella Typhimurium, primary screen (AID 1863). S. Typhimurium PhoP-regulated promoter GFP reporter, 4 h; higher % means a stronger effect. inhibition, % at 50 µM, or IC50 in µM where a hit was titrated. 300,000 tested, 0.16% active;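 active means inhibition over 29.93%, a cutoff 3 SD above the screen mean, later confirmed by dose response; inconclusive means inhibition over 29.93% but no dose response follow-up; inactive means inhibition at most 29.93% or unconfirmed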;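 further: 0% = low Mg2+ inducing control and 100% = high Mg2+ repressing control; strong numbers were not always called active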
SIAH1 antagonists – blockers of Siah-1 interaction with plectin peptide – biochemical, fluorescence polarization, rhodamine-plectin, uHTS, primary screen (AID 1817); 290,000 tested, 0.02% active; Siah-1 / rhodamine-plectin peptide fluorescence polarization; higher % means a stronger effect; displacement, % at 20 µM; hits with a dose series show IC50 in µM;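 active means displacement of at least 50% at 20 µM, with a fluorescence ratio check between 0.3 and a set limit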;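 further: plate controls were Siah plus tracer with DMSO for no effect and tracer alone without Siah for full effect; strong numbers were not always called active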
KOR beta-arrestin-1 – kappa opioid receptor blockers – cell-based, luminescence, uHTS (AID 1778); one-dose inhibition, % at 10 µM; IC50 in µM for titrated hits; 290,000 tested, 0.091% active; KOR beta-arrestin recruitment, luminescence, antagonist mode; higher % means a stronger effect; further: strong numbers were not always called active
LYP inhibition – PTPN22 lymphoid phosphatase activity blockers – biochemical, fluorescence intensity, uHTS (AID 1779); recombinant LYP phosphatase, fluorescence intensity; higher % means a stronger effect; inhibition, % at 11.5 µM, or IC50 in µM where a hit was titrated; 290,000 tested, 0.054% active;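 further: plate controls were vehicle with enzyme for no effect and no enzyme for full effect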
HIV peptide binding – cell-free HIV fusion peptide-binding blockers – biochemical, uHTS, fluorescence dequenching, primary screen (AID 1986) | cell-free peptide binding, fluorescence dequenching, 30 min; higher % means a stronger effect | inhibition, % at 20 µM; hits with a dose series show IC50 in µM | 290,000 tested, 0.3% active; in the data active means inhibition mostly above about 52%, no sharp cut-off; inactive means mostly below about 76%; further: some results filed as inactive read as strong as hits
KOR beta-arrestin-2 – kappa opioid receptor activators – cell-based, luminescence, uHTS, primary screen (AID 1777); KOR beta-arrestin recruitment, luminescence; higher % means a stronger effect; 280,000 tested, 0.02% active; one-dose activation, % at 10 µM; EC50 in µM for titrated hits; in the data active means activation above about 50%, passing the limit was not always enough; further: a part of the inactive calls stands beside numbers as strong as those of hits
Myeloid diff 2 – myeloid differentiation induction; ER-HoxA9 myeloid progenitors, lysozyme-GFP differentiation, flow cytometry; calls only at 10 µM; 360,000 tested, 1% active;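 active means normalized GFP-positive differentiation at or above the plate's own cutoff, the solvent-only control mean plus 3 SD; inconclusive means no clear call, values can overlap the other calls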;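 further: cells exposed to compound for four days before flow analysis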
Myeloid diff 2 GFP+ MAC1+ % – second read-out of Myeloid diff 2, no call of its own (marks repeat the call); GFP+ MAC1+ double positive, %; measured here: differentiation confirmed by MAC1 staining
* hit, by the source's call; i = inactive; u = inconclusive; x = not tested or not shown; + = active, no number; [ ] = dose if it differs, or a comment. Unless noted, no stated cut-off is given here; in the data, active means inhibition above about 50%; inactive means the rest.

| SMILES | Salmonella PhoP GFP | SIAH1 antagonists | KOR beta-arrestin-1 | LYP inhibition | HIV peptide binding | KOR beta-arrestin-2 | Myeloid diff 2 | Myeloid diff 2 GFP+ MAC1+ % |
| --- | --- | --- | --- | --- | --- | --- | --- | --- |
| CC(C)c1noc2ncc(C(=O)c3cc(Cl)cc(Cl)c3O)cc12 | -8% | 3% | -44% | -5% | 5.1% | -5.3% | i | 1.2 |
| COc1cc(OC)cc(-c2cc3nc(C)c(CCC(=O)O)c(C)n3n2)c1 | 3% | 3% | 22% | -5% | -1.7% | -1.8% | i | 2.0 |
| CCCCCCc1cc2cc(S(=O)(=O)c3ccc(Cl)cc3)c(=O)oc2cc1O | 6% | 7% | -8% | -5% | 14% | 1.6% | i | 2.3 |
| CC1(c2ccccc2)CC(C)(C)N2C(=O)/C(=C3\SC(=S)NC3=O)c3cccc1c32 (stereo not given) | 16% | 10% | 1% | 23% | 84µM* | 3.8% | i | 0.5 |
| NNC(=O)C=C1CCN(c2ncc(C(F)(F)F)cc2Cl)CC1 | -8% | -2% | 3% | -3% | 3.4% | -3.6% | x | x |
| Cc1c(Cl)cccc1NC(=S)N=Nc1c(O)n(CN2CCOCC2)c2ccccc12 | 4% | -12% | 40% | -1% | 11% | -4.2% | i | 0.3 |
| O=C(CCCc1nc(-c2ccc(Cl)cc2)no1)NC1CCCC1 | -8% | -1% | -11% | 0% | -0.3% | 2.7% | i | 4.7 |
| Cc1ccccc1Nc1nc(N)nc(CCl)n1 | 8% | -14% | 12% | -10% | -0.3% | -0.8% | i | 0.7 |
| Cc1nn(-c2cc(C(F)(F)F)ccc2Cl)c2nc(C(Cl)(Cl)Cl)[nH]c(=O)c12 | 1% | -1% | 17% | 2% | 45% | 5.7% | i | 0.5 |
| O=C(Nc1ccc(N2CCN(C(=O)c3ccco3)CC2)c(Cl)c1)c1cc2ccccc2o1 | 11% | -1% | -8% | 6% | -2.3% | 18% | i | 0.6 |
| Cc1csc2c(N3CCN(C(=S)Nc4ccc(C(F)(F)F)cc4)CC3)ncnc12 | 2% | 2% | -6% | 0% | -1.0% | 3.5% | i | 1.1 |
| COc1ccccc1C(=O)Nc1nc2ccccc2s1 | -5% | 2% | -8%[20 µM] | 0% | -0.2% | 2.3% | i | 0.3 |
| O=C(NC(=S)N1CCN(c2ccc(Cl)cc2[N+](=O)[O-])CC1)c1cccs1 | 11% | -8% | 12µM* | 5% | -1.9% | -5.8% | i | 0.5 |
| O=C(NCCOc1nc(N2CCOCC2)nc(N2CCOCC2)n1)Nc1ccccc1 | -7% | 0% | -7% | -13% | -3.5% | 2.3% | i | 0.0 |
| CCc1ccc(-c2cc(C(F)(F)F)n3nc(C(=O)Nc4cnn(Cc5ccccc5C)c4)cc3n2)s1 | 10% | 1% | -35% | -3% | -0.8% | 1.5% | i | 8.0 |
| COCCn1c(C)cc(C(=O)COc2ccc(C)nc2[N+](=O)[O-])c1C | 6% | -4% | -1% | -6% | 12% | -0.8% | i | 0.4 |
| CCOC(=O)c1c(-c2ccccc2)csc1NC(=O)CSc1nc(N)cc(N)n1 | 26% | -5% | -3% | -2% | -1.9% | 0.3% | i | 0.4 |
| COC(=O)C1=COC(C)C2CN3CCc4c([nH]c5ccccc45)C3CC12 (stereo not given) | 4% | 4% | -1% | 1% | 0.2% | 1.4% | i | 2.8 |
| Cc1cccc(Sc2c(C=O)c3ccccc3n2C)c1 | -2% | 5% | -4% | 2% | -0.9% | 0.2% | x | x |
| Cc1cc(C(=O)CCl)c(C)n1CCc1ccc(F)cc1 | 7% | 4% | -22% | 5% | 2.8% | 1.7% | i | 0.0 |

Retrieved one by one from above (three):
| SMILES | Salmonella PhoP GFP | SIAH1 antagonists | KOR beta-arrestin-1 | LYP inhibition | HIV peptide binding | KOR beta-arrestin-2 | Myeloid diff 2 | Myeloid diff 2 GFP+ MAC1+ % |
| --- | --- | --- | --- | --- | --- | --- | --- | --- |
| COc1ccccc1C(=O)Nc1nc2ccccc2s1 | -5% | 2% | -8%[20 µM] | 0% | -0.2% | 2.3% | i | 0.3 |
| CCOC(=O)c1c(-c2ccccc2)csc1NC(=O)CSc1nc(N)cc(N)n1 | 26% | -5% | -3% | -2% | -1.9% | 0.3% | i | 0.4 |
| COCCn1c(C)cc(C(=O)COc2ccc(C)nc2[N+](=O)[O-])c1C | 6% | -4% | -1% | -6% | 12% | -0.8% | i | 0.4 |

(cont.)
| SMILES | Salmonella PhoP GFP | SIAH1 antagonists | KOR beta-arrestin-1 | LYP inhibition | HIV peptide binding | KOR beta-arrestin-2 | Myeloid diff 2 | Myeloid diff 2 GFP+ MAC1+ % |
| --- | --- | --- | --- | --- | --- | --- | --- | --- |
| Clc1ccc(CCNc2nc3ccccc3s2)cc1 | -6% | 1% | -19% | 4% | 0.5% | 3.5% | i | 0.4 |
| N=C1S/C(=C\c2ccc(-c3cccc(Cl)c3)o2)C(=O)N1c1nccs1 | -9% | 10% | 5.7µM* | 10% | 68% | -11% | i | 0.5 |
| CCCCCCc1cc2cc(-c3nnc(-c4ccccc4O)o3)c(=O)oc2cc1O | 5% | -3% | -80% | -1% | 65% | x | + | 41* |
| O=C(c1cc(COc2cccc3cnccc23)on1)N1CCC(c2ccccc2Cl)C1 (stereo not given) | 10% | 1% | -21% | -5% | 3.0% | -0.5% | i | 4.0 |
| O=[N+]([O-])c1cccc(-c2nc(-c3ccccn3)no2)c1 | -13% | -6% | 14% | -6% | -1.5% | -0.4% | i | 1.3 |
| CCCCCc1cc(O)c2c(C)cc(=O)oc2c1 | 1% | 4% | -37% | 0% | -0.7% | 3.2% | i | 1.8 |
| O=C(NCc1ccccc1)c1ccc(S(=O)(=O)N2CCCc3ccccc32)cc1 | 1% | 4% | 9% | 2% | 1.3% | 0.5% | i | 0.3 |
| CN(C)c1ccc(C(=O)Nc2nnc(-c3ccc(Cl)cc3)o2)cc1 | -12% | 6% | -20% | -6% | -9.7% | -4.6% | i | 1.3 |
| O=S1(=O)C=C(Sc2nc3cc(Cl)ccc3o2)c2ccccc21 | -4% | -5% | 8% | -8% | -1.5% | -0.8% | x | x |
| O=[N+]([O-])c1ccc(NC(=S)NCc2ccc(F)cc2)cc1 | 6% | 4% | -52% | -5% | 2.0% | 5.5% | i | 0.5 |
| Cn1c(/C=C/c2ccc(Cl)cc2Cl)c([N+](=O)[O-])c(=O)n(C)c1=O | 8% | 0% | 10% | -6% | 2.6% | 0.0% | x | x |
| Cc1cc(C(=O)NC2CCCc3c2cnn3-c2ccc(C)c(C)c2)n(C)n1 (stereo not given) | 0% | 6% | 13% | -6% | 0.9% | -6.3% | i | 1.2 |
| Clc1ccccc1C1=Nn2c(nnc2-c2ccncc2)SC1 | 2% | 4% | 13% | -4% | 0.4% | -3.0% | i | 0.2 |
| Cc1sc2nc(SCc3ccc(C(=O)O)cc3)n(Cc3ccco3)c(=O)c2c1C | -13% | 8% | -13% | 3% | 40% | 8.5% | i | 0.2 |
| Cc1c(C(=O)N/N=C/c2c(O)ccc3ccccc23)nnn1-c1nonc1N | 5% | -6% | -25% | -8% | -2.7% | -4.6% | u | x |
| O=[N+]([O-])c1ccc(Oc2ccc(F)cc2Br)c2ccncc12 | 2% | 2% | -10% | -1% | -2.7% | 3.3% | i | 0.3 |
| CC[n+]1c(C=C2C=C(C)OC(C)=C2)sc2ccccc21 | -8% | -2% | -5% | 8% | -0.8% | -0.4% | x | x |
| Cc1ccc(-c2csc(NC(=O)C3=NN(c4ccccc4)C(=O)CC3)n2)cc1 | 0% | -3% | -36% | 5% | 8.7% | 4.2% | i | 0.5 |
| N#C/C(=C(/O)COc1ccc(Cl)cc1)c1nc2ccccc2s1 | 8% | 4% | 5%[20 µM] | -4% | 15% | -1.3% | i | 0.3 |
| COc1ccc(N=C2NC(=O)/C(=C/c3ccc(O)c(OC)c3)S2)cc1 | -1% | 1% | -50% | 1% | 7.2% | 5.4% | i | 0.5 |

An excerpt from above in order of their number in Salmonella PhoP GFP, largest number first:
| SMILES | Salmonella PhoP GFP |
| --- | --- |
| Cc1cc(C(=O)NC2CCCc3c2cnn3-c2ccc(C)c(C)c2)n(C)n1 (stereo not given) | 0% |
| COc1ccc(N=C2NC(=O)/C(=C/c3ccc(O)c(OC)c3)S2)cc1 | -1% |
| Clc1ccc(CCNc2nc3ccccc3s2)cc1 | -6% |

Going on with the list.
| SMILES | Salmonella PhoP GFP | SIAH1 antagonists | KOR beta-arrestin-1 | LYP inhibition | HIV peptide binding | KOR beta-arrestin-2 | Myeloid diff 2 | Myeloid diff 2 GFP+ MAC1+ % |
| --- | --- | --- | --- | --- | --- | --- | --- | --- |
| O=c1c2ccccc2nc(/C=C/c2cc(Br)ccc2O)n1CCCO | -4% | -2% | 9% | -1% | 0.9% | 0.1% | i | 0.4 |
| CCOC(=O)c1ccc(NC(=O)Cn2ncc(Cl)c(Cl)c2=O)cc1 | 25% | 17% | 58% | -6% | 6.6% | -6.3% | u | x |
| O=[N+]([O-])c1ccc(N/N=C/c2sc(N3CCOCC3)nc2-c2ccccc2)c(S(=O)(=O)Nc2ccc(Cl)cc2)c1 | 8% | 0% | 37%[20 µM] | 3% | 42% | -2.5% | + | 0.7* |
| Cc1oc2c(F)c(F)c(F)c(F)c2c1S(=O)(=O)Nc1cccc(C(F)(F)F)c1 | -4% | 3% | -38% | -2% | 15% | 2.5% | i | 0.8 |
| CCN1C(=O)C(CC(=O)Nc2ccc(Br)cc2)N(CCCc2ccccc2)C1=S (stereo not given) | 4% | -2% | 15% | -3% | 16% | -2.1% | i | 1.5 |
| COc1cccc(NS(=O)(=O)c2ccc3c(c2)CCN3C(C)=O)c1 | 5% | -2% | 3% | -10% | 1.1% | -0.4% | i | 1.0 |
| COc1ccc(-c2nn(-c3ccccc3)cc2/C=N/NC(=O)c2ccc(Br)o2)cc1 | 13% | -2% | -4% | 0% | 0.5% | 0.9% | i | 0.6 |
| Cc1nc(C)c(-c2ccc(SCC(=O)Nc3cccc(Cl)c3)nn2)s1 | -2% | 6% | -17% | -4% | 2.5% | 6.8% | i | 0.8 |
| COC(=O)c1ccc(C(=O)OC)c(NC(=S)N2CCN(c3ccccc3)CC2)c1 | -7% | 4% | -19% | 4% | -3.0% | 2.0% | i | 5.3 |
| c1csc(CCNc2ncnc3sc4c(c23)CCC4)c1 | 0% | -2% | -16% | -5% | -0.5% | 5.7% | i | 2.4 |
| CCOC(=O)Cc1csc(NC(=S)NC(=O)c2ccc(F)cc2)n1 | -6% | -2% | -41% | -2% | -1.1% | 9.2% | i | 0.8 |
| O=C(c1cc(COc2cccc3cnccc23)on1)N1CCCC(CCCO)C1 (stereo not given) | 2% | 1% | -18% | -16% | 1.1% | 3.5% | i | 2.8 |
| Cc1cc(C)c(S(=O)(=O)/N=C2\C=C(NS(=O)(=O)c3ccccc3)C(=O)c3ccccc32)c(C)c1 | -5% | -2% | -13% | 4% | 68% | 0.7% | i | 1.6 |
| CCCC(=O)NC(c1cccs1)c1cc([N+](=O)[O-])c2cccnc2c1O (stereo not given) | 38µM* | -5% | 8% | 5% | 19% | -6.2% | i | 0.5 |
| O=C(Nc1nc(-c2ccccn2)cs1)Nc1ccc(F)cc1F | -3% | -2% | 28% | -9% | -2.6% | -1.2% | u | x |
| O=C(NC(=S)N(CCCCO)C1CCCCC1)c1sc2ccccc2c1Cl | -5% | 2% | 14% | 2% | 2.4% | 1.9% | i | 11 |
| COc1ccc(-c2cc(-c3c(O)c(OC)c4occc4c3OC)[nH]n2)cc1OC | -3% | 0% | -45% | 1% | 2.5% | 4.2% | i | 4.2 |
| Cc1cc(C)cc(NC(=O)/C=C/c2ccc([N+](=O)[O-])s2)c1 | 10% | 4% | 4% | 0% | 5.3% | 5.5% | u | x |
| CCCCCCCCn1ccc(=N)cc1 | 17% | -3% | 11% | -5% | -1.2% | 5.0% | u | x |

Bioassay records: PubChem BioAssay, several laboratories

A portion of the library (hit frequency here may not be typical).
